Source: PubChem BioAssay
Mtb MenB inh: blocks the Mycobacterium tuberculosis MenB enzyme | MenB enzyme assay, absorbance read-out; some hits fall short of the stated cut | AID 540299 | hit rate 0.43% among 100,000 | inhibition, %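 (about 12 µg/mL by stock and volumes)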 | P9WNP5;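 active = mean of two replicates above 30%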;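 note: 0% = no compound and 100% = wells with inactive enzyme; the first replicate is given; strong numbers were not always called active; inactives centre near -10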
Mtb MbtI inh: blocks the Mycobacterium tuberculosis siderophore enzyme MbtI; P9WFX0; inhibition, %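 (about 17 µg/mL by stock and volumes)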; hit rate 0.89% among 100,000; purified MbtI enzyme, fluorescence intensity read-out;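 active = above 50% in both replicates, above 80% if mildly self-fluorescent; inactive = the rest, strongly fluorescent compounds included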;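 note: 0% = mean of negative and 100% = mean of positive controls; one replicate is shown; some compounds called inactive have numbers as strong as hits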
Target sequence (P9WFX0 whole entry, looked up): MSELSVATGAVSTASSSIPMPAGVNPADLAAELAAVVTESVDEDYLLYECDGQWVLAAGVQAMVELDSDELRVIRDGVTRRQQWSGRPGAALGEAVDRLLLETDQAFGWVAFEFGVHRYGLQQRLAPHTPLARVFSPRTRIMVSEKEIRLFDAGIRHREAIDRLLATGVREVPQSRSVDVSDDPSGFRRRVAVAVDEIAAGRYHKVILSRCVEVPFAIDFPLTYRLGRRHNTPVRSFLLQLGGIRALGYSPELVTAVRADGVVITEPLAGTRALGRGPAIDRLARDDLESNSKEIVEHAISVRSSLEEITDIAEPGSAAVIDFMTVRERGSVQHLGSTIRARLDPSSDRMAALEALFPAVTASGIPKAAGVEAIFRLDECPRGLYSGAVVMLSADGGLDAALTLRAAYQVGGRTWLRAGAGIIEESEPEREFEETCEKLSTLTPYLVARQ
PV pol inh: poliovirus RNA polymerase inhibition | hit rate 0.66% among 150,000 | % elongation, % (compound at 16.7 µg/mL) | poliovirus polymerase elongation, fluorescence polarization; stronger effect = lower value | P03300; in the data active = % elongation below about 90%; note: some results filed as inactive read as strong as hits
Target sequence (P03300 1749-2209 limits assumed): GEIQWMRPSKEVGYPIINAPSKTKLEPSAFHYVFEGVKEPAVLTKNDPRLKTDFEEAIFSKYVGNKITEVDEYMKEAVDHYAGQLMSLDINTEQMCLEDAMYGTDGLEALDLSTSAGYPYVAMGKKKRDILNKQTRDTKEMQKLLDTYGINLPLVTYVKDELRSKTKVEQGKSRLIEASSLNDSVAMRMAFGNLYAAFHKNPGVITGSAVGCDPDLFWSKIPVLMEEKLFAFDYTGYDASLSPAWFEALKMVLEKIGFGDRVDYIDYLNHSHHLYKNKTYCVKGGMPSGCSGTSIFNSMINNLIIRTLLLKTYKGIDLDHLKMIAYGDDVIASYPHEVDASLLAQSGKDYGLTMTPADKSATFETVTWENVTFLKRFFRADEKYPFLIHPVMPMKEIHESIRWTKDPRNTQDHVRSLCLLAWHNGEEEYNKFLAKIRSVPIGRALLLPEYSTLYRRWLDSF
PV pol inh intensity: further read-out of PV pol inh, marked with its call; % elongation; measured here: total intensity read-out; formula for this scale not given here;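 total fluorescence in place of polarization; lower means less elongation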
An asterisk follows results filed as active; i = inactive; x = not tested or not shown.

Under each structure – Mtb MenB inh, Mtb MbtI inh, PV pol inh, PV pol inh intensity
1: Fc1ccc(-c2nnc(SCc3ncc(-c4ccccc4)o3)n2CC2CCCO2)cc1 (stereo not drawn)
  -7, -5, 102, 104
2: CC1CCN(C(=O)Cn2c(=O)n(Cc3ccc(F)cc3)c(=O)c3ccccc32)CC1
  -33, 4, 105, 100
3: Cc1cc(-c2ccccc2)n2ncc(C#N)c2n1
  -42, 88, 101, 102
4: CCc1ccc(NC(=O)CSc2nc3c(oc4ccccc43)c(=O)n2CC)cc1
  -4, -10, 104, 99
5: Cc1ccccc1NC(=O)C(C)c1c(C)n[nH]c1C (stereo not drawn)
  14, -2, 101, 101
6: O=C(CSc1nc2ccccc2n1-c1ccccc1)NCC1CCCO1 (stereo not drawn)
  x, 0, 99, 99
7: c1csc(-c2nnc3n2C2(CCCC2)Cc2ccccc2-3)c1
  -2, 1, 102, 101
8: O=C1N(Cc2ccccc2)CCCC12CCCN(Cc1ccccc1)C2=O
  -2, -22, 100, 103
9: O=C1CCN=C(SCC(=O)Nc2ccccc2)N1
  3, -5, 102, 101
10: CN(C)c1ccc(NC(=O)COC(=O)c2ccc(Br)cc2)cc1
  -29, 3, 104, 102
11: CC(C)C(=O)Nc1ncc(Cc2ccccc2)s1
  -14, -8, 101, 101
12: CCCN(CC(=O)Nc1ccccc1C(=O)NC1CC1)Cc1nnc(-c2ccco2)o1
  -16, 11, 104, 108
13: CCOC(=O)NC(=O)Cn1c(=O)cnc2ccccc21
  -5, 30, 104, 113
14: Cc1c(C(N)=O)nnc2cc(-c3ccccc3)nn12
  6, -5, 102, 113
15: CCNC(=S)/N=C(\N)Nc1nc(C)c2cc(C)ccc2n1
  -24, 1, 100, 100
16: CCn1c(O)c(/C=N/c2ncn[nH]2)c(=O)n(CC)c1=S
  7, 22, 105, 103
17: CC1CCN(C(=O)c2cc3nc(-c4ccco4)cc(C(F)(F)F)n3n2)C(C)C1 (stereo not drawn)
  -30, 1, 105, 104
18: O=C1C2C3C=CC(C3)C2C(=O)N1CCN1CCN(S(=O)(=O)c2cccs2)CC1 (stereo not drawn)
  -40, -9, 104, 100
19: O=C(CSc1cccc[n+]1[O-])NC(=O)NC1CCCC1
  -15, -5, 102, 108
20: Cc1ccc(-n2cc(C(C)(C)C)[nH]c2=S)cc1
  -14, 6, 101, 101
21: CCCn1c(/N=C/c2ccccc2Cl)nc2ccccc21
  x, 2, 99, 98
22: O=C1CCC(=O)N1CN(Cc1ccccc1)CN1C(=O)CCC1=O
  -14, -2, 103, 102
23: CN(C)CCN(Cc1ccccc1)C(=O)c1cc2ccc3cccnc3c2[nH]1
  -42, -16, 102, 101
24: O=C(NC1CCCCNC1=O)c1ccc(N2CCOCC2)nc1 (stereo not drawn)
  11, 1, 105, 99
25: Cc1cc(C)cc(N=Cc2cccc(OCc3ccccc3)c2)c1
  -2, x, 108, 103
26: CCC(=O)Nc1ccc(C(=O)CSc2ncc(C#N)c(N)n2)cc1OC
  -14, -21, 100, 100
27: O=C(O)c1ccccc1NC(=O)c1cc2ccccc2oc1=O
  1, 2, 98, 100
28: Cc1ccc(C(=O)CSc2nnc(-c3cccs3)n2C)o1
  -20, x, 104, 101
29: COC(=O)C1=C(C)N(Cc2ccco2)C(=O)/C1=C\c1cc(C)n(-c2ccc(OC)c(Cl)c2)c1C
  -4, 7, 103, 104
30: COc1ccc(CNC(=O)CN2CCNC(=O)C2)cc1OC
  -7, -1, 111, 130
31: CCN(CC)CCN1C(=O)C(=O)/C(=C(/O)c2cnn(-c3ccccc3)c2C)C1c1cccs1 (stereo not drawn)
  -3, 3, 102, 101
32: Cc1c(NC2=NC3(CCCCC3)Cc3ccccc32)c(=O)n(-c2ccccc2)n1C
  12, 2, 99, 101
33: Nc1ccc(NC2=NCCCS2)cc1
  -2, 1, 103, 102
34: NS(=O)(=O)c1ccc(NC(=O)C(F)(F)F)cc1
  -29, -9, 101, 104
35: COc1ccc(C(=O)O)cc1Nc1nc2ccccc2n2c(C)nnc12
  3, -7, 102, 107
36: COc1ccc(C)c2c1CCCC2=O
  -10, x, 103, 104
37: O=C(CSC1CCCCC1)N1CCCC1
  x, -12, 103, 108
38: COc1ccc(NC(=O)CSc2nc3c(oc4ccccc43)c(=O)n2C)cc1OC
  -5, 5, 102, 98
39: CCN(CC)S(=O)(=O)c1cc2c3c(c1)c(C)cc(=O)n3CCC2
  -43, x, 104, 101
40: CC(C)OP(C)(=O)C(=O)Oc1ccccc1 (stereo not drawn)
  1, -16, 105, 103
41: CC1=CCCC(C)(C)C1/C=C/C(C)=N/O (stereo not drawn)
  -4, -21, 100, 103
42: C=CCNS(=O)(=O)c1ccccc1C(F)(F)F
  x, -4, 102, 99
43: CCCNC(=O)Cn1c(=O)c2cccn2c2ccccc21
  -37, 3, 101, 107
44: Cc1cc(=O)oc2cc(OCC(=O)N3CCc4ccccc4C3)ccc12
  x, 5, 102, 105
45: O=C(NCC1OCCc2ccccc21)c1ccccc1 (stereo not drawn)
  -56, -6, 103, 103
46: N#Cc1ccc(COC(=O)CNC(=O)c2ccccc2)cc1
  x, -10, 103, 105
47: CC(C)NC(=O)C1CCN(c2ccc(S(=O)(=O)N3CCOCC3)cc2Cl)CC1
  29, 0, 100, 103
48: Cc1cc2ncn(C(=O)N(C)C)c2cc1C
  9, -3, 100, 101
49: CCOC(=O)Cc1csc(SCC(=O)C(C#N)c2nc(C)cs2)n1 (stereo not drawn)
  -21, 3, 110, 114
50: N#Cc1ccc(C(=O)OCC(=O)NC23CC4CC(CC(C4)C2)C3)cc1
  x, -4, 102, 103
51: CCOC(=O)Cc1c(C)nc2nc(N)[nH]n2c1=O
  -7, -3, 101, 100
52: CCCOP(=O)(c1ccccc1)c1ccccc1
  -17, -5, 97, 102
53: CCOC(=O)C1CCN(Cc2ccccc2)CC1=O (stereo not drawn)
  -18, -11, 102, 103
54: Cn1[nH]c(CP(=O)(c2ccccc2)c2ccccc2)cc1=O
  -9, 22, 101, 103
55: Cc1cc(C)n(CCSCC(=O)O)n1
  -1, x, 100, 104
56: CC(C)NC(=O)CCCN1C(=O)C(c2ccccc2)Oc2cccnc21 (stereo not drawn)
  -1, -20, 103, 102
57: Cc1cc(C)c(C#N)c(SCC(=O)N(c2ccccc2)C2CCS(=O)(=O)C2)n1 (stereo not drawn)
  -13, 4, 105, 106
58: NC(=S)NCC1CCCO1 (stereo not drawn)
  -15, 89*, 97, 97
59: Cc1ccc2nc(C)n3c4ccccc4c(NC=O)c3c2c1
  -14, -5, 103, 108
60: O=C(CC1c2ccccc2Oc2ccccc21)NCCOc1ccccc1Cl
  -44, 0, 105, 107

(further entries)
Under each structure – Mtb MenB inh, Mtb MbtI inh, PV pol inh, PV pol inh intensity
61: CCN(CC)S(=O)(=O)c1ccc(-c2csc(Nc3cccc(OC)c3)n2)cc1
  -22, x, 100, 100
62: CNCCCC1c2ccccc2C=Cc2ccccc21
  -8, i, 99, 99
63: O=C1CC(c2nc3ccccc3[nH]2)CN1c1cccc2ccccc12 (stereo not drawn)
  0, -6, 101, 102
64: CC1=C(C(=O)NCc2ccco2)C2(CCCCC2)OC1=O
  -14, 7, 101, 99
65: CC(Sc1nnc(Nc2ccc(C(C)C)cc2)s1)C(N)=O (stereo not drawn)
  -54, 5, 98, 104
66: O=C(/C=C/Nc1ccccc1C(F)(F)F)c1ccco1
  -339, -5, 108, 106
67: COC(=O)C1C(c2ccc(N(C)C)cc2)C(C(=O)OC)S(=O)(=O)CS1(=O)=O (stereo not drawn)
  8, -2, 102, 101
68: COCCNC(=O)Cc1c(C)nc2c(-c3ccccc3)c(C)nn2c1C
  -5, 4, 101, 102
69: Cc1ccc(C(=O)CC(Sc2ccccc2N)c2ccsc2)cc1 (stereo not drawn)
  -26, 17, 105, 109
70: CO/N=C(\C(=O)O)c1csc(N)n1
  -2, 14, 102, 101
71: CNc1ccccc1C(=O)OCC(=O)c1c[nH]c2ccccc12
  -37, 96, 112, 132
72: CCCN(C(=O)C(C)C)c1nnc(-c2cc(OC)c(OC)c(OC)c2)s1
  -13, 88, 102, 101
73: CC(=O)NC1=NN(C(C)=O)C(c2cccc3ccccc23)N1C(C)=O (stereo not drawn)
  -18, -4, 104, 101
74: Cc1cccn2c(=O)cc(CN3CCN(c4cnn(-c5ccccc5)c(=O)c4Cl)CC3)nc12
  -12, -1, 100, 104
75: S=C(NCc1ccc2c(c1)OCO2)N1CCN(c2ccccn2)CC1
  -51, 16, 101, 103
76: CCN1CCCC1CNC(=O)c1ccccc1Sc1ccccc1C#N (stereo not drawn)
  7, 24, 102, 98
77: CC1=NN(c2ccc(-c3csnn3)cc2)C(=O)C1
  -3, -6, 102, 114
78: Cc1cc(NC2CCCCC2)n2ncnc2n1
  16, 2, 101, 103
79: CC(C)CCN(Cc1ccco1)S(=O)(=O)c1csc(C(N)=O)c1
  -24, -25, 103, 103
80: CC1(C)Cc2nc3sc(C(=O)NCCO)c(N)c3cc2CS1
  6, 14, 100, 100
81: N#CCCN1CCN(S(=O)(=O)c2ccc(S(=O)(=O)N3CCCC3)cc2)CC1
  -8, 0, 102, 103
82: Cc1cc(C)n2nc(C(=O)OCc3ncc(-c4ccccc4)o3)nc2n1
  7, -8, 104, 107
83: COc1ccc(CN2C3CCCC2CC(NC(=O)NC2CCCCC2)C3)cc1 (stereo not drawn)
  -26, -5, 104, 101
84: Cc1cc2nc(C)c(CCC(=O)O)c(C)n2n1
  3, -2, x, x
85: CCc1cccc(-n2nnc(S(=O)(=O)c3ccccc3)c2C)c1
  -5, -1, 100, 103
86: NC(=O)c1cccc(S(=O)(=O)N2CCOCC2)c1
  -33, -2, 102, 104
87: O=C(Nc1ccc2oc3ccccc3c2c1)c1ccc2nc[nH]c2c1
  0, 90, 109, 111
88: COc1ccc(-n2nc3c(c2NC(=O)c2ccccc2C(F)(F)F)CSC3)cc1
  -26, 11, 103, 101
89: O=C1CSc2ccc(C(=O)OCC(=O)N3CCCc4ccccc43)cc2N1
  8, 60*, 102, 102
90: CCn1c(=O)c(C(=O)CN2CCCCC2)c(N)n(Cc2ccccc2)c1=O
  14, 14, 105, 107
91: O=C(c1ccccc1)C1CCN(S(=O)(=O)c2ccc(Cl)cc2)CC1
  -8, -12, 102, 116
92: COc1ccc(N=C2SCC(=O)N2c2ccc(OC)cc2)cc1
  -1, 4, 101, 96
93: COC(=O)CNC(=O)CC12CC3CC(CC(C3)C1)C2
  1, 0, 107, 107
94: Cc1ccc2nc(NNC(=O)c3ccccc3)sc2c1
  -53, 4, 103, 103
95: CC1CCCN(CCCNC(=O)c2coc3nc4ccccc4nc23)C1 (stereo not drawn)
  -44, 108, 103, 100
96: N#Cc1ccccc1NC(=O)COC(=O)CC1CC2CCC1C2 (stereo not drawn)
  x, -5, 102, 104
97: Cc1cc(NNC(=O)c2ccccc2O)c2cccc(C)c2n1
  -38, 0, 103, 102
98: CN(Cc1ccccc1)S(=O)(=O)c1cccc2cccnc12
  -22, -6, 100, 101
99: CCCNC(=O)C1CNc2ccccc2O1 (stereo not drawn)
  -13, 0, 106, 107
100: O=c1[nH]c(CN2CCCCC2)nc2c1oc1ccccc12
  -10, x, 110, 113
101: Cc1oc(-c2ccccc2)nc1CSc1nc2c(c(=O)[nH]1)CCC2
  -21, 10, 103, 104
102: CC1=CC(C)C(C2OCC(CN3CCCCC3)O2)C(C)C1 (stereo not drawn)
  x, -11, 102, 108
103: CCOC(=O)c1c(/N=C/c2c(O)ccc3ccccc23)sc2c1CCC2
  -8, x, 116, 126
104: O=C(COc1ccc2ccc(=O)oc2c1)NC1CCCCC1
  5, 119, 93, 87
105: CCCC(C(=O)Nc1ccc2c(c1)OCO2)c1ccccc1 (stereo not drawn)
  -15, 0, 102, 105
106: O=C1C=C(Nc2ccc(F)c(C(F)(F)F)c2)c2ccccc2C1=O
  -4, x, 62*, 59*
107: CC(=O)Nc1ccc(SCC(=O)N(C)Cc2ccco2)cc1
  -32, -1, 105, 109
108: COc1cccc(N(C(=O)C(F)(F)F)C(C(=O)NC2CCCC2)c2cccs2)c1 (stereo not drawn)
  -7, x, 106, 112
109: Cc1cc(C)c2c(-c3ccccc3)nc(SCC#N)n2n1
  -27, 13, 102, 102
110: COc1cccc(CN(C)C(=O)/C=C/c2ccco2)c1OC
  -21, 10, 105, 111
111: C/C(=N/O)c1ccc(N2C(=O)C3C4C=CC(C4)C3C2=O)cc1 (stereo not drawn)
  9, 8, 103, 102
112: CCN(CC)S(=O)(=O)c1ccc(N2CCCC2)c(C(=O)OCC(=O)c2cccs2)c1
  -6, 0, 99, 97
113: O=c1[nH]c2ccccc2cc1CN(CC1CCCO1)S(=O)(=O)c1ccccc1 (stereo not drawn)
  19, 61, 101, 101
114: Cc1ccc(C(=O)COC(=O)C2C3C=CC(C3)C2C(=O)OCC(=O)c2ccc(C)c(C)c2)cc1C (stereo not drawn)
  -6, x, 100, 101
115: CCCCn1nc(C(N)=O)c2ccccc2c1=O
  -19, -6, 104, 100
116: O=C(Nc1ccccc1C(=O)O)c1ccccc1Cl
  -24, x, 102, 93
